Cruzain inh noDet: qHTS Assay for Promiscuous and Specific Inhibitors of Cruzain (without detergent) | purified cruzain, Z-FR-AMC fluorescence, no detergent | Potency, µM, for the others: max response, negative = inhibition, most hits filed as inhibitors | actives 2.3% (n = 200,000) | AID 1476, 2009;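 also: plate controls were enzyme without inhibitor for no effect and buffer without enzyme for full effect; nearly all actives have a fitted effect of over 40% in size; top concentration of the series not given in the record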
Target sequence (P25779 123-467 limits assumed): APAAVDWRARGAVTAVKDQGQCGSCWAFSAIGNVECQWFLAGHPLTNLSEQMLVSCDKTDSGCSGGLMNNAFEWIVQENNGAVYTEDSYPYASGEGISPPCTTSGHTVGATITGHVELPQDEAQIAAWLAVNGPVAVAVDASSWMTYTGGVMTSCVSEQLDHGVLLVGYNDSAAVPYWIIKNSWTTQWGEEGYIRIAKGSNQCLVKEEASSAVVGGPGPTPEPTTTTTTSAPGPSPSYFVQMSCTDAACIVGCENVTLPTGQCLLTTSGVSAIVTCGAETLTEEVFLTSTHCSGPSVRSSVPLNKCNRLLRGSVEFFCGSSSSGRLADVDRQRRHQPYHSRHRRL
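Detergent-free condition (0.00005% Triton X-100) in acetate buffer pH 5.5 with DTT. 1.5 nM enzyme and compound were pre-mixed 15 min, then 2 uM Z-FR-AMC substrate added; reaction progress from fluorescence change between first and third reads (60 s).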
Cruzain Triton: qHTS Assay for Promiscuous and Specific Inhibitors of Cruzain (with detergent); Cruzipain (Trypanosoma cruzi), P25779; purified cruzain, Z-FR-AMC fluorescence, 0.01% Triton; Potency, µM, without a hit: max response, negative = inhibition, actives largely listed as inhibitors; actives 0.43% (n = 200,000);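 also: plate controls were neutral wells for no effect and buffer without enzyme for full effect; nearly all actives have a fitted effect of over 40% in size; top concentration of the series not given in the record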
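Z-FR-AMC hydrolysis (2 uM substrate) by cruzain (1.5 nM) monitored kinetically at ex 360/em 450 nm after 15 min room-temperature compound exposure; 0.01% Triton X-100, pH 5.5, 5 mM DTT.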
NS1 inh: qHTS Assay for Inhibitors of Influenza NS1 Protein Function | S. cerevisiae slowed by influenza A NS1, growth recovery by OD600 | Potency, µM (highest dose often 46.1 µM), inactives show at the top dose activity, positive = more growth | actives 0.4% (n = 270,000); active means well fitted rising curve with a large enough effect; inconclusive means small, poorly fitted or top-dose-only effect; inactive means no such curve, though single readings can be large or run the other way; also: nearly all actives have a fitted effect of over 50% in size
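OD600 was taken as the measure of yeast growth restored by compound in an NS1-expressing S. cerevisiae strain. Cells had been washed out of glucose medium and diluted 1:100 into galactose -URA medium, pH 6.0.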
StopGo reporter: High Throughput Screening for Foot and Mouth Disease Virus Antivirals; human cells with a luciferase reporter of 2A StopGo recoding; control for the full effect not named in the record; Potency, µM (top dose mostly 57.9 µM), inactives show at the top dose signal change, negative = less light; actives 1.2% (n = 410,000); active = well fitted falling curve with a large enough effect; inconclusive = small, poorly fitted or top-dose-only effect; inactive = no such curve, though single readings can be large or run the other way; tested in HEK293T cells; also: % is scaled to controls: 0 for no effect and ±100 for the full control effect; nearly all actives have a fitted effect of over 45% in size; luciferase light after 4 h
SARS PLpro yeast: qHTS of Yeast-based Assay for SARS-CoV PLP | Potency, µM (doses to about 32.9 µM), inactives show at the highest dose activity, positive = growth rescue | S. cerevisiae expressing SARS-CoV PLpro, growth rescue; control for the full effect not named in the record | actives 0.19% (n = 330,000) | AID 485353, 2010; active means well fitted rising curve with a large enough effect; inconclusive means small, poorly fitted or top-dose-only effect; inactive means no such curve, though single readings can be large or run the other way; also: 0% is about no effect; nearly all actives have a fitted effect of over 55% in size; growth read by luminescence after 48 h
LASV entry inh: qHTS for Inhibitors of binding or entry into cells for Lassa Virus; Potency, µM (doses to about 37.9 µM), inactives show at the top dose activity change, negative = inhibition, most hits filed as inhibitors; Lassa virus pseudotype entry inhibition, cell reporter; control for the full effect not named in the record; actives 1.2% (n = 300,000); active means well fitted inhibition curve with a large enough effect; inconclusive means small, poorly fitted or top-dose-only effect, or effect the other way; inactive means flat fitted curve, though single readings scatter; tested in HEK293 cells; also: % is scaled to controls: 0 for no effect and ±100 for the full control effect; nearly all actives have a fitted effect of over 50% in size; luciferase read-out
MARV entry inh: qHTS for inhibitors of binding or entry into cells for Marburg Virus; actives 1.8% (n = 300,000); Marburg virus pseudotyped entry inhibition, cell reporter; control for the full effect not named in the record; about a third of the inactives were read at about 46 µM; Potency, µM (top dose mostly 37.8 µM), for inactives: top-dose activity change, negative = inhibition, usual class: inhibitors; active = well fitted inhibition curve with a large enough effect; inconclusive = small, poorly fitted or top-dose-only effect, or effect the other way; inactive = flat fitted curve, though single readings scatter; tested in HEK293 cells; about a fifth of its hits are not listed in these tables; also: % is scaled to controls: 0 for no effect and ±100 for the full control effect; luciferase read-out
RE007 growth inh: qHTS Assay for Inhibitors of the HIV-1 protein Vpr; Potency, µM (titrated, usually from 92.2 µM), for the others: at the highest dose activity change, negative = less growth; actives 0.21% (n = 360,000); AID 651644, 2012; S. pombe RE007 Vpr strain, BacTiter-Glo ATP luminescence, 24 h; control for the full effect not named in the record; active = well fitted falling curve with a large enough effect; inconclusive = small, poorly fitted or top-dose-only effect; inactive = no such curve, though single readings can be large or run the other way;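 also: % is scaled to controls: 0 for no effect and ±100 for the full control effect; nearly all actives have a fitted effect of over 50% in size; the assay follows cell death caused by Vpr and the record does not say whether a fall means rescue or toxicity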
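Fission yeast RE007 carrying one integrated HIV-1 vpr copy, seeded at OD 0.01 in PMG+AL medium with 23 nL pinned compound. Grown 24 h at 30 degrees; viability read by BacTiter-Glo luminescence after 5 min.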
Active calls of the source: *; u = inconclusive; x = no result given; & = joins results of further samples; [ ] = dose if it differs, or a comment. Unless noted, calls follow the shape of the dose curve; as a rule, active = well fitted curve in the direction sought with a large enough effect; inconclusive = small, poorly fitted or top-dose-only effect, or another doubt; inactive = no such curve, though single readings can be large; an effect the other way counts as inactive or inconclusive. Potency is read from the fitted curve at half-maximal effect.

SMILES | Cruzain inh noDet | Cruzain Triton | NS1 inh | StopGo reporter | SARS PLpro yeast | LASV entry inh | MARV entry inh | RE007 growth inh
CCC(C)NC(=O)Cn1ccc2cc(S(=O)(=O)N3CCCCC3)ccc21 (stereo unspecified) | 12.9% | -0.7% | x | -9.0% | x | 25.6%[46.1 µM] | x | x
CCOC(=O)N1CCN(C(=O)CCSCCc2ccncc2)CC1 | 0.7% | 4.9% | -2.0% | -22.2% | 0.9% | -13.4% | -16.5% | -4.6%
CCCCc1nn2c(=O)cc(COC(=O)c3ccccc3NC(=O)c3ccccc3OC)nc2s1 | -9.0% | -0.1% | x | -0.3% | x | 15.5%[46.1 µM] | x | x
CCN(CC)CCN(C(=O)c1ccc(S(=O)(=O)N(C)C2CCCCC2)cc1)c1nc2ccc(OC)cc2s1 | x | x | -3.6% | -1.9% | -5.5% | 7.4%[46.1 µM] | u | 2.9%
Cc1cccc(NC(=S)NC(=O)CC2CC(C)(C)OC2=O)c1 (stereo unspecified) | x | x | 1.5% | 21.4% | 0.3% | x | x | 7.0%
COc1ccc(-c2csc(NC(=O)Cn3nc(C)cc3C)n2)cc1 | -10.5% | 3.5% | -7.6% | -15.4% | 1.1% | -11.5% | -9.3%[46.1 µM] | 33.4%
O=C(Nc1ccc(Cc2ccncc2)cc1)C1CCC(N2C(=O)C3CC=CCC3C2=O)CC1 (stereo unspecified) | -9.3% | 0.6% | -7.3% | x | u | -18.7% | -11.1% | -5.3%
CN(Cc1ccccn1)C(=O)CC1C(=O)NCCN1Cc1cccc(Oc2ccccc2)c1 (stereo unspecified) | x | x | 3.4% | -9.2% | 0.0% | u | u | 25.5%
O=C(O)/C=C\c1ccccc1Oc1cccc(Cl)c1 | x | x | x | -10.0% | 2.6% | u | 7.5%[46.1 µM] | 18.0%
COc1cc(OC)cc(C(=O)NCCc2csc(-c3ccc(C(F)(F)F)cc3)n2)c1 | u | -13.8% | x | u | x | 3.3%[46.1 µM] | x | x
CCOc1ccc(NC(=O)CSc2nnc(Cn3cnc([N+](=O)[O-])n3)n2CC)cc1 | x | x | x | -3.4% | 4.5% | 10.1% | u | -12.3%
COC(=O)C1CCN(S(=O)(=O)CCNC(=O)c2cccc(OC)c2)CC1 | x | x | x | -9.6% | -1.5% | -2.5% | -11.1% | 12.1%
Cc1cc2c(cc1S(=O)(=O)NCc1ccc(Cl)cc1)OCC(=O)N2 | x | x | -3.8% | 5.2% | -7.6% | x | x | 13.8%
NS(=O)(=O)c1ccc(-n2cccc2C=O)cc1 | x | x | 4.0% | -11.2% | -1.0% | 16.9% | -19.4%[46.1 µM] | 9.2%
CC(O)CN(CC(C)O)c1ccc2c(c1)Cc1cc([N+](=O)[O-])ccc1-2 (stereo unspecified) | x | x | x | -4.3% | x | -26.9% | -7.5% | 2.5%
CC(C)OC(=O)c1nnn(-c2nonc2N)c1CN1CCc2ccccc2C1 | -1.5% | -5.5% | -20.3% | u | -7.0% | -3.3% | -12.6% | 0.0%
O=C(O)CCN1C(=O)/C(=C\c2cccc(OCC(=O)Nc3ccc(Cl)cc3)c2)SC1=S | x | x | 7.6% | -2.5% | 0.6% | x | x | -4.2%
O=C(NCc1ccccc1Cl)c1cnc2ccccc2n1 | x | x | -29.3% | 21.3% | -9.6% | u | u | -11.9%
CCOC(=O)CC(NC(=O)c1cc2cc(Cl)ccc2oc1=O)c1ccc(C)cc1 (stereo unspecified) | -4.3% | -0.7% | x | -6.7% | x | -0.8%[46.1 µM] | -14.4%[46.1 µM] | x
CCOc1ccc(NC(=S)NCCCn2ccnc2)cc1 | 4.0% | 0.3% | 4.2% | 21.0% | 7.9% | 12.4% | 23.4% | -10.0%
Nc1ncc(-n2cncn2)c(-c2ccccc2)n1 | x | x | x | -1.0% | 0.0% | 20.3% | 14.6%[46.1 µM] | 15.2%
COc1cccc(CN2CCN(C(=O)Cc3ccccc3OC)CC2)c1 | x | x | -2.6% | 1.8% | 0.2% | x | x | 6.8%
Cc1ccccc1CNS(=O)(=O)c1ccc2c(c1)C(C)(C)C(=O)N2C | x | x | 2.3% | 41.0%[activator] | 0.6% | x | x | -0.4%
CCCCn1c(N)c(N(CC(C)C)C(=O)CC2CCCC2)c(=O)[nH]c1=O | x | x | x | 3.4% | -0.7% | 0.8%[46.1 µM] | 6.3% | -7.9%
CC(C)C(=O)Nc1nnc(Sc2ccc(N(C)C)cc2)s1 | u | 7.0% | -0.5% | -5.8% | u | -16.5% | 1.9% | -6.2%
CCOC(=O)C1C(c2cccs2)NC(=O)NC1(O)C(F)(F)F (stereo unspecified) | -3.7% | 7.5% | -0.5% | x | 5.4% | 10.3% | -1.2% | 8.9%
Cc1ccc(OCCOCCN2CCCCC2)c([N+](=O)[O-])c1 | x | x | 0.1% | 18.6% | 0.0% | 11.6% | u | -17.2%
CCOC(=O)c1cccc(S(=O)(=O)N2CCOCC2)c1 | x | x | -0.5% | -0.4% | 1.3% | -7.9% | 17.8%[46.1 µM] | 1.8%
O=C(CN1C(=O)C2C3C=CC(C3)C2C1=O)Nc1cccc2c1CCCC2 (stereo unspecified) | 10.7% | -3.0% | -2.7% | -26.5% | -6.4% | 2.4% | 5.2% | -12.8%
COc1ccc(NC(=O)c2cccc(-c3ccc(O)cc3)c2)cn1 | x | x | 3.7% | 18.0% | -12.5% | -23.6%[46.1 µM] | -24.6%[46.1 µM] | 1.0%
CC1CC(=O)NC(=O)N1Cc1ccccc1 (stereo unspecified) | x | x | x | 4.4% | x | 12.4%[46.1 µM] | u | 0.0%
O=C(Nc1cccc(NC(=O)C2CCCO2)c1)C1CCCO1 (stereo unspecified) | x | x | 2.1% | -18.8% | 12.0% | x | x | 5.5%
Cc1ccc(NC(=O)/C(=C/c2cccc([N+](=O)[O-])c2)NC(=O)C2CCCCC2)c(C)c1 | u | 3.0% | 11.2% | x | 0.4% | u | u | -4.3%
CCc1ccc(NC(=O)CCc2ccc(CC)o2)cc1 | x | x | -44.0% | 12.8% | -10.7% | 5.9%[46.1 µM] | -0.4%[46.1 µM] | 3.3%
NC(=O)SC/C(=N\S(=O)(=O)c1ccccc1)Nc1ccccc1 | -1.4% | 1.8% | -1.8% | x | 3.3% | 4.3% | 10.3% | 6.8%
CCOc1ccc(NC(=O)CN(C)c2ccc(S(=O)(=O)N(C(C)C)C(C)C)cn2)cc1OCC | u | -4.6% | -1.1% | -11.2% | x | -17.1% | -4.8%[46.1 µM] | 7.4%
Cc1cccn2c(=O)c(C(=O)NCCCN3CCCCC3C)c(O)nc12 (stereo unspecified) | -0.8% | -6.6% | -4.8% | 4.3%&-9.3% | 7.4% | x | 23.9%[46.1 µM] | -9.5%
COc1ccccc1NC(=O)CSc1nnc(Cc2cccn2C)n1CCc1ccccc1 | u | 0.4% | 25.9% | 4.3% | -1.5% | -8.8% | -13.1% | -1.9%
O=C1NC(=O)N(c2ccccc2F)C(=O)/C1=C/c1cn(CC(=O)N2CCOCC2)c2ccccc12 | x | x | 0.0% | 22.4µM* | 3.4% | u | -1.0%[46.1 µM] | 11.1%
Cc1nn(C(C)C(=O)NC2C(=O)N3C(C(=O)O)=C(CSc4nnnn4C)CSC23)cc1Cl (stereo unspecified) | x | x | x | -16.5% | 1.9% | 0.6% | -0.1% | -3.6%
CCCn1nc(NC(=O)c2ccco2)c2cc3ccc(C)cc3nc21 | 14.2% | -7.0% | 1.6% | -6.2% | 0.8% | 12.0% | -8.9% | -9.2%
COc1cccc(NC(=O)CSCC(=O)Nc2ccccc2)c1 | 6.2% | 1.1% | 5.4% | -19.8% | 4.1% | u | -5.2% | 29.6%
O=C(Nc1ccc2c(c1)OCCO2)c1ccccc1 | x | x | -52.9% | -39.0% | -4.1% | u | u | -18.8%
Cc1[nH]nc2c1C(c1cc(Br)cs1)C(C#N)=C(N)O2 (stereo unspecified) | -11.7% | -6.5% | -19.3% | u | -21.1% | -1.7% | u | -1.9%
CCOC(=O)N/N=C/c1ccc(F)cc1F | -1.2% | 3.4% | -8.3% | 11.0% | -7.9% | 8.7% | u | u
COc1cccc(CNc2cnc3ccccc3c2)c1O | 1.8% | -11.9% | 5.1% | x | -2.5% | -26.4% | u | 11.8%
COc1cccc(NC(=O)CC2C(=O)NC3CCCCC3N2C(=O)c2ccc(F)cc2)c1 (stereo unspecified) | -1.8% | -4.5% | -4.3% | x | 4.7% | 12.9% | -1.2% | 14.0%
O=C(N/N=C/c1ccc(-c2ccc(Cl)c(C(=O)O)c2)o1)c1cc2c(ccc3ccccc32)o1 | x | x | 2.3% | -13.7% | 1.1% | x | x | 7.2%
CC(OC(=O)C1=COCCO1)C(=O)c1ccc(Br)cc1 (stereo unspecified) | x | x | x | -3.7% | -2.3% | 25.6%[46.1 µM] | 17.5%[46.1 µM] | 8.3%
CC(C)(C)NC(=O)C(c1ccc(F)cc1)N(Cc1cccs1)C(=O)c1ccc(CN2CCOCC2)o1 (stereo unspecified) | x | x | -3.0% | 9.0% | 0.6% | 8.0% | 2.82µM* | -19.7%
CCS(=O)(=O)N1CCN(C(=O)c2ccco2)CC1 | -1.4% | 6.2% | 0.0% | x | 2.0% | 24.6% | -11.4% | 12.9%
COc1ccc(N2CCN(C(=O)CN(C)S(=O)(=O)c3cccs3)CC2)cc1 | 0.4% | -0.6% | -2.4% | -7.3%&-19.1% | -1.6% | -12.3% | 20.8%&4.3%[46.1 µM] | -9.9%
CCOc1ccc(CCNC(=O)c2cc3c(s2)CS(=O)(=O)C3)cc1OCC | x | x | 12.7% | -13.9% | -4.5% | 18.5%[46.1 µM] | -14.9%[46.1 µM] | -9.8%

Screening data deposited in PubChem by National Center for Advancing Translational Sciences (NCATS).
